Biofilm kill mix = mixture kills Candida albicans biofilm cells; C. albicans biofilm persisters + clotrimazole, fluorescence viability; primary screen in compound mixtures of four per well; 120,000 tested, 0.02% active; inhibition, % at 7.6 µM;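 active = inhibition above 30.3% in the primary screen of four-compound pools, then above 30% when the compound was retested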;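 note: compounds exposed to preformed 24 h biofilms for 48 h; the number belongs to the whole pool; some results filed as inactive read as strong as hits; inactives centre near 12; 0% = biofilm with clotrimazole alone and 100% = kill control; retested singly at about 60 µM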
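Test system: C. albicans biofilms. Buffer or medium: RPMI/MOPS medium, pH 7.0. Timing: 48 h compound exposure at 37 °C. Technique: Alamar Blue fluorescence. Evaluation: percent inhibition of biofilm viability.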
An asterisk follows results filed as active. This is a subset; the hit share may differ from the screen's.

SMILES	Biofilm kill mix
CC1CCCCN1CC(O)COCCC12CC3CC(CC(C3)C1)C2 (stereo unspecified)	-6
CC(=O)N1CC=CC1(CC(C)C)C(=O)NCc1cc(F)cc(C(F)(F)F)c1 (stereo unspecified)	18
COc1ccc(NC(=O)CN2CCN(C(=S)NC3CCCC3)CC2)cc1	25
Cc1cc(=O)n(C2CCS(=O)(=O)C2)[nH]1 (stereo unspecified)	15
COc1nc(N/N=C/c2ccc(-c3cccc([N+](=O)[O-])c3)o2)nc(N2CCOCC2)n1	17
COc1ccccc1NC(CC(=O)c1ccccc1)C(=O)OCC(=O)c1ccc(C)c(C)c1 (stereo unspecified)	12
CCOC(=O)C1CCN(S(=O)(=O)c2ccc(NC(C)=O)c(Cl)c2)CC1	22
Cc1cc(=O)n(-c2ccc(C(=O)O)cc2)[nH]1	13
CC(=O)Nc1ccc(NC(=O)CN(C)CC(=O)Nc2ccccc2Br)cc1	4
O=S(=O)(/N=C(/Nc1ccccn1)c1ccc(Cl)cc1)c1ccc(Cl)cc1	3
Cc1cc2cc3c(cc2nc1SCc1ccccn1)OCCO3	6
CCOC(=O)C1(Cc2ccc(Cl)cc2)CCN(C(=O)c2cnc(C)cn2)CC1	19
Cc1ccc(CCSc2ccc(C(C)C)cc2)cn1	12
Cc1cccc(N2CCN(C3=NC(=O)C(Cc4ccccc4)S3)CC2)c1 (stereo unspecified)	23
CC1CCCC(n2cnc3cc(C(=O)O)ccc32)C1C (stereo unspecified)	5
Cc1cc(C(=O)COC(=O)c2ccc(Br)o2)c(C)n1C	33
Cc1ccc(N2C(=O)CN(Cc3sccc3C)C2=S)cc1C	20
Cc1ccc(NC(=O)COC(=O)CCc2ccc(S(=O)(=O)N3CCOCC3)cc2)cc1F	-2
CCOC(=O)N1CCC(NC(=O)C2CCN(S(=O)(=O)c3ccc4c(c3)oc(=O)n4C)CC2)CC1	3
Cc1ccc(Cl)cc1NC(=S)N(CCCN1CCOCC1)Cc1ccccn1	8
O=C(COC(=O)[C@H](Cc1c[nH]c2ccccc12)NC(=O)c1cccs1)NCc1ccccc1	15
O=C(O)CC(Cc1ccc(Cl)cc1)C(=O)Nc1ccc([N+](=O)[O-])cc1 (stereo unspecified)	7
CC(C)NC(=S)NN=C1c2ccccc2-c2ccccc21	17
O=c1[nH]cc(NCCc2ccccc2)c(=O)[nH]1	15
CCCCOc1ccc(CONS(=O)(=O)c2ccc(NC(C)=O)cc2)cc1Cl	9
COc1ccc(-c2nc3cc(NC(=S)NC(=O)Cc4ccccc4)ccc3o2)cc1	13
CCN(CC)C(=O)Cn1cc(C(=O)C(=O)N2CC=C(c3ccccc3)CC2)c2ccccc21	20
Cc1cc2nc(/N=C(\N)NC(=O)N3c4ccccc4Sc4ccccc43)nc(C)c2cc1C	11
Cc1cc(OC2CCCCC2)nc(NCc2ccccc2)n1	-5
Cc1cccc(-c2cc3nc(-c4ccccc4)cc(N4CCC5(CC4)OCCO5)n3n2)c1	9
Cc1ccc(S(=O)(=O)N2CCOCC2)cc1NC(=O)CSc1nccn1C	15
Cc1cc(OCC(=O)Nc2nnc(C3CC3)s2)ccc1[N+](=O)[O-]	2
CN1N=C(C(=O)N2CCN(c3ccc([N+](=O)[O-])cc3)CC2)CCC1=O	11
NC(=O)c1ccsc1NC(=O)c1ccc(S(=O)(=O)N2CCCC2)cc1	16
Cc1cc(Br)cc(C)c1NC(=O)c1ccc(C#N)cc1F	13
COc1cccc(Nc2nnc(SCC(=O)Nc3sccc3C(N)=O)s2)c1	12
CCc1nc2ccccc2n1Cc1ccccc1F	7
COc1ccc(CCNC(=O)c2sc3ccccc3c2Cl)cc1OC	10
Cc1cccc(C)c1NC(=O)CCCSc1nnc(-c2ccc(Cl)cc2)n1-c1ccccc1	1
CCCCCOc1ccc(N2C(=O)C3C4C=CC(C3C2=O)N(C)C4=O)cc1 (stereo unspecified)	12
CC(=O)Nc1ccc(NC(=O)CN(c2ccc([N+](=O)[O-])cc2)S(=O)(=O)c2ccccc2)cc1	7
CCC(NS(=O)(=O)c1cn(C)nc1C)c1ccccc1 (stereo unspecified)	0
O=C(CSc1nc2ccccc2o1)N1c2ccccc2Sc2ccccc21	6
FC(F)(F)c1cccc(N2CCN(C(=S)NC3CCCCC3)CC2)c1	11
COc1cccc(-c2c[nH]c(=O)[nH]c2=O)c1	24
CCOc1ccc(C(=O)NN2C(=S)NC(C)(C)C=C2C)cc1	18
CC(C)CC(=O)Nc1cccc2c1C(=O)N(c1ccccc1)C2=O	22
CC(=O)CC(C)(C)Nc1nc2cc([N+](=O)[O-])ccc2o1	2
CCN(Cc1ccncc1)Cc1cn[nH]c1-c1ccc(OC)cc1F	20
O=C(CNC(=O)C1COc2ccccc2O1)N/N=C/c1ccc(O)cc1O (stereo unspecified)	14
CC(C)(C)c1ccc(C(=O)NCC(=O)OCC(=O)c2ccc3c(c2)-c2ccccc2C3)cc1	-3
Cc1nc(N2CCOCC2)nc2c1CCC2	-2
CC1CCCCC1NC1=NCCCS1 (stereo unspecified)	13
COc1cc(NC(=S)NCc2cccnc2)cc(OC)c1	-3
O=S(=O)(Nc1ccc(N2CCCCC2)cc1)c1ccc(F)cc1F	21
O=C(CSc1nnc2n1CCCN2)c1ccccc1	8

Carrying on.
SMILES	Biofilm kill mix
O=C(NCc1csc(-c2cccs2)n1)Nc1ccc(C(F)(F)F)cc1	-1
COC(=O)CCC(=O)OC1(C)C(=O)C=C2C=C(C3CC3)N(Cc3ccccc3)C=C2C1=O (stereo unspecified)	7
Cc1nn(-c2ccccc2)c(N)c1C(O)(C(F)(F)F)C(F)(F)F	4
CSc1nc(Cl)c(Cc2ccc(OC(C)C)cc2)c(N(C)C)n1	6
O=S(=O)(Nc1nccs1)c1cnc(Cl)c(Br)c1	17
O=C(NNC(=O)c1ccc(NC(=O)c2ccccc2)cc1)c1ccccc1	15
COc1cc(/C=N/NC(=O)C23CC4CC(CC(C4)C2)C3)cc(Br)c1O	18
CC(C)(C)C(=O)NNC(=O)c1cc2sccc2s1	-1
COCCN(C(=S)Nc1ccc(C(C)C)cc1)C(C)c1cccs1 (stereo unspecified)	10
O=S(=O)(c1ccc(F)cc1)c1nc(-c2ccco2)oc1Nc1ccc(F)cc1	-4
O=C1C2=C(CCCC2)C(=O)N1c1cccc(OCCBr)c1	20
Cc1nc(NS(=O)(=O)c2ccc(Cl)s2)c2c3c(sc2n1)CCCC3	16
CCCCCCCC[n+]1cccc(C(=O)N(CC)CC)c1	12
COc1cc(NC(=S)NCCC(c2ccccc2)c2ccccc2)c(OC)cc1Cl	9
CCn1cc(CN2CCCC(CNS(=O)(=O)Cc3ccccc3)C2)cn1 (stereo unspecified)	-2
COc1ccc(CC(=O)Nc2ccc(N3CCOCC3)cc2)cc1OC	23
CC[n+]1ccc(/C=C/c2ccc(N(C)C)cc2)c2ccccc21	35*
Cc1c(Cl)c([N+](=O)[O-])nn1CCCC(=O)Nc1cc(Cl)ccc1Cl	15
COC(=O)c1nc(N)sc1C	12
Cc1cc(CNC(=O)c2ccc3c(c2)OCO3)c2ccccc2n1	-2
Cc1cc(C(F)F)n2nc(C(=O)Nc3sc4c(c3C#N)CCC4)nc2n1	12
CC1CCCC(C)N1c1nnc(N)s1 (stereo unspecified)	7
Cc1ccc(S(=O)(=O)NCCC(=O)Nc2nccs2)cc1	2
CC1CCCN(CCCOc2ccc([N+](=O)[O-])cc2)C1 (stereo unspecified)	10
CC1Cc2ccccc2N1C(=O)CSc1nnc(-c2ccc(S(=O)(=O)N3CCOCC3)cc2)n1C (stereo unspecified)	20
O=C(Cc1c(F)cccc1Cl)Nc1nc2ccccc2s1	14
Fc1ccc2nc(N3CCCCC3)sc2c1	-2
Cc1nn(CC(=O)OCCOc2ccc(Br)cc2)c(C)c1[N+](=O)[O-]	-4
CSc1nnc(-c2ccc(NC(N)=S)cc2)o1	10
O=C(CN(c1ccccc1)S(=O)(=O)c1ccccc1)N/N=C/c1ccc(OC2CSC2)cc1	18
O=C(Cc1ccc(Cl)cc1)Nc1ccc(S(=O)(=O)Nc2cnc3ccccc3n2)cc1	6
CC(Nc1ccc(Cl)c(Cl)c1)C(=O)NN (stereo unspecified)	13
CCN(CC)CCn1c(NCc2cc(OC)ccc2OC)nc2ccccc21	7
CCN(CC)CCCNC(=O)CSc1nc(-c2ccc(F)cc2)cc(C(F)(F)F)n1	3
CSc1cc(-c2ccccc2)n(C)c(=O)c1C#N	16
COC(=O)c1ccccc1NC(=O)c1cnn2cccnc12	16
O=C(NC1CCCCC1)C1Cc2ccccc2CN1S(=O)(=O)c1ccc(F)cc1 (stereo unspecified)	-3
Cc1ccc(NC(=O)CN(C)C(=O)CSc2ncc(C(F)(F)F)cc2Cl)cc1	21
CCOC(=O)c1cc(-c2ccco2)nn1-c1ccc(C)cc1	14
O=C(CNC(=O)OCc1ccccc1)NC1CCCCCCC1	4
COC(=O)C1=C(C)N(Cc2ccco2)C(=O)N[C@@H]1c1ccccc1	12
COc1cc(NC(=O)COc2ccccc2)c(OC)cc1NC(C)=O	14
Cc1cnc(NC(=O)CCNC(=O)c2ccc([N+](=O)[O-])cc2)s1	3
CCn1c(SCc2nc(N)nc(N3CCCCC3)n2)nc2c1c(=O)n(C)c(=O)n2C	8
COc1ccc(C(CNC(=O)c2cc3ccccc3o2)N2CCCCC2)cc1 (stereo unspecified)	3
CN(C)c1ccc(C(=S)N2CCN(C(=S)Nc3cccc4ccccc34)CC2)cc1	3
Cc1ccc(C(=O)N2CCCC(CCC(=O)N3CCN(c4ccccn4)CC3)C2)s1 (stereo unspecified)	5
COc1ccc(C(=O)CNc2ccccc2C#N)cc1	16
Cc1ccc(CNC(=O)COc2ccccc2-c2ccccc2)cc1	1
CN1CCCN(C(=O)CC2(CC(=O)O)CCCC2)CC1	5
Cc1oc(-c2cccs2)nc1CN1CCN(CC(C)C)C(CCO)C1 (stereo unspecified)	20
NC(=O)c1c(NC(=O)Cn2cc([N+](=O)[O-])cn2)sc2c1CCCC2	3
CCOc1ccc(/C=C2/Sc3ccc(C(=O)N4CCN(C(=O)c5ccco5)CC4)cc3N(C)C2=O)cc1OC	7
COc1ccc(S(=O)(=O)Nc2nc3ccccc3nc2NCC2CCCO2)cc1 (stereo unspecified)	19
O=C(C1=C[C@@H](c2coc3ccccc3c2=O)C[C@@H](OCCCCO)O1)N1CCN(Cc2ccccc2)CC1	11
CCOC(=O)c1c(NC(=O)COc2cccc3c2CCN(Cc2ccc(F)cc2)C3=O)sc2c1CCC2	19

(further entries)
SMILES	Biofilm kill mix
COC(=O)Cn1cc(C(=O)C(F)(F)F)c2ccccc21	29
Cc1ccc(-c2onc3ccc(Cl)cc23)cc1	6
Cc1ccccc1C1c2[nH]c3ccccc3c2CCN1CCCn1cccn1 (stereo unspecified)	3
CC(C)CNC(=O)Cn1c(=O)c2c(ncn2CC(C)C)n(Cc2ccccc2)c1=O	9
C/C(=N\Nc1nc(C)cc(C)n1)c1ccc(N2CCOCC2)cc1	10
O=C(NC(=S)Nc1ccccn1)c1ccco1	12
CC(C)(C)CC(C)(C)NC(=O)/C=C/C(=O)O	20
O=C(O)CC(CC(=O)Nc1ccc2ccccc2n1)c1ccccc1 (stereo unspecified)	21
CC(C)(C)NC(=O)CN(C(=O)CN1C(=O)C(=O)c2ccccc21)C(C)(C)C	14
Cc1ccc(C2=NNC(=O)C(P(=O)(c3ccccc3)c3ccccc3)C2)cc1 (stereo unspecified)	23
CCc1cccc(N=c2c([N+](=O)[O-])nn(-c3ccc4c(c3)OCCO4)n2O)c1	12
O=C(/C(C=Nc1ccc(F)cc1)=C(/O)c1ccco1)C(F)(F)F	8
Cc1ccc(S(=O)(=O)N(C)C)cc1NS(=O)(=O)c1ccc(Cl)s1	13
Cc1cc(=O)oc2cc(OCc3ccc(C(=O)OCC(=O)NC4CCS(=O)(=O)C4)cc3)ccc12 (stereo unspecified)	-2
COc1ccc(N2CCN(C(c3cccs3)C(C)NC(=O)c3ccc4c(c3)OCO4)CC2)cc1 (stereo unspecified)	8
O=C(CN1CCCc2ccccc21)Nc1ccccc1[N+](=O)[O-]	-2

Six entries picked at random from the list so far:
SMILES	Biofilm kill mix
O=C(CN(c1ccccc1)S(=O)(=O)c1ccccc1)N/N=C/c1ccc(OC2CSC2)cc1	18
Cc1cc2cc3c(cc2nc1SCc1ccccn1)OCCO3	6
COc1ccc(CC(=O)Nc2ccc(N3CCOCC3)cc2)cc1OC	23
Cc1c(Cl)c([N+](=O)[O-])nn1CCCC(=O)Nc1cc(Cl)ccc1Cl	15
Cc1ccc(Cl)cc1NC(=S)N(CCCN1CCOCC1)Cc1ccccn1	8
Cc1ccc(CNC(=O)COc2ccccc2-c2ccccc2)cc1	1

(more compounds)
SMILES	Biofilm kill mix
CN(c1ccc(OCC(=O)Nc2nc(-c3ccccc3)cs2)cc1)S(=O)(=O)c1ccc(F)cc1	-13
CCOC(=O)C1=C(c2ccccc2)ON(C)C1c1ccccc1 (stereo unspecified)	13
COc1ccc(N2C(=O)/C(=C/c3ccc([N+](=O)[O-])cc3)N=C2C)cc1	18
CN(C)/C=C\C(=C/C(=O)C(F)(F)F)Nc1ccccc1Oc1ccccc1	18
Cn1cc([N+](=O)[O-])c(C(=O)Nc2ccc(C(=O)N3CCCCC3)cc2)n1	10

Screens: PubChem BioAssay, PCMD
